Arbovirus inh – blocks arbovirus infection; arbovirus infection cell-based antiviral screen; inhibition, % at 10 µM; hit rate 0.37% among 200,000; AID 1251;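 active = inhibition from about 30%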;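 note: bluetongue infection of BSR cells; cell survival read as ATP light after 72 h; 0% = infected wells without compound and 100% = uninfected wells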
Mtb growth – M. tuberculosis H37Rv growth inhibitors, H37Rv strain (AID 1626); inhibition, % at 10 µM, or IC50 in µM where a hit was titrated; M. tuberculosis H37Rv growth inhibition; higher % means a stronger effect; hit rate 0.95% among 220,000;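 active = confirmed in a dose series; inconclusive = inhibition above 80% but not taken into the dose series; inactive = below 80% or under 30% at every dose of the series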;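 note: bacteria incubated seven days before Alamar blue readout; 0% = bacteria only wells and 100% = bacteria with antibiotic wells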
Mtb betalactam – beta-lactam sensitization of Mtb H37Rv | M. tuberculosis H37Rv growth with meropenem, percent inhibition; hits of this screen are not shown here | inhibition, % at 25 µM | hit rate 0.27% among 330,000;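 active = about 74% or more and at least 40 points above the plate without the antibiotic, then above 30% in a dose series; inconclusive = first-round hits that could not be retested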;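 note: growth measured after seven days incubation then overnight dye step; 0% = bacteria only wells and 100% = bacteria with antibiotic; twin plates without the antibiotic show which effects depend on it; some results filed as inactive read as strong as hits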
YopH PTP inh – blocks Yersinia enterocolitica YopH tyrosine phosphatase. hit rate 0.16% among 140,000. inhibition, %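 (about 10 µM by stock and volumes)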. fluorescence Ex485/Em525;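 active = inhibition of 50% or more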;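 note: controls were vehicle for no effect and minimum signal wells for full effect; inactives centre near -20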
RecA intein inh – inhibitors of M. tuberculosis RecA intein splicing; P9WHJ3; cell-free RecA intein splicing, fluorescence; inhibition, %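 (about 9 µM by stock and volumes)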; hit rate 0.75% among 290,000; in the data active = inhibition above about 30%; inconclusive = no clear call, values can overlap the other calls;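 note: 0% = vehicle wells and 100% = reference inhibitor control wells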
Target sequence (P9WHJ3 whole entry, looked up): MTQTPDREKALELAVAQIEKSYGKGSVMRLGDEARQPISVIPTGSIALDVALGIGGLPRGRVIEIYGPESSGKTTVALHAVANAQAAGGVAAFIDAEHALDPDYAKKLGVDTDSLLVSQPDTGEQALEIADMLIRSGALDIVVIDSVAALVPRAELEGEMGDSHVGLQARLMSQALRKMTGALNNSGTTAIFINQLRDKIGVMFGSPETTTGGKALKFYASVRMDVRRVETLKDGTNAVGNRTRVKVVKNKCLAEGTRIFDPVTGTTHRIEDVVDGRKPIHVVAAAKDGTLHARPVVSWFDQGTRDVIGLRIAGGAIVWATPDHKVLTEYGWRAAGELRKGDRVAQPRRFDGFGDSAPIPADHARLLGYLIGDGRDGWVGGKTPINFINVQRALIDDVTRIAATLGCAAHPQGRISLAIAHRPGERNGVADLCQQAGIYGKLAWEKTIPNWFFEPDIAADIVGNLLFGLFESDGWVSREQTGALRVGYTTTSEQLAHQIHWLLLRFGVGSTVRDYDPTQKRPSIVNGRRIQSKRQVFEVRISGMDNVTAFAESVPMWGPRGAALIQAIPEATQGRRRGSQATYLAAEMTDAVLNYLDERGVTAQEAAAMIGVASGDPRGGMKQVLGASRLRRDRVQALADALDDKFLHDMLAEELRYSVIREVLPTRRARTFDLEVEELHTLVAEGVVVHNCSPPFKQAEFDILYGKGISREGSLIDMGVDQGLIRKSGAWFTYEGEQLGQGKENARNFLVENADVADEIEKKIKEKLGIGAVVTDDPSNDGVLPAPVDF
Arbovirus inh repeat – second read-out of Arbovirus inh, no call of its own (marks repeat the call); inhibition, %; measured here: 10K subset replicate screen; many hits read low in the repeat;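 first of two repeat runs on a subset; 0% = infected and 100% = uninfected wells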
Active calls of the source: *; ? = inconclusive; / = not tested or not shown; & = joins results of further samples.

SMILES	Arbovirus inh	Mtb growth	Mtb betalactam	YopH PTP inh	RecA intein inh	others
COc1cc(CNc2cccc(C(=O)O)c2)cc(Br)c1OCC(=O)NC(C)(C)C	7	-1%	-2	-31	-1.1
O=C1CC(Cc2ccccc2)C(=O)N1c1ccccn1 (stereo not given)	/	0%	1	/	-0.4
O=C(Nc1ccccc1Cl)c1ccc(S(=O)(=O)N2CCOCC2)cc1	-4	1%	-3	/	-5.8	Arbovirus inh repeat=2
Cc1cccc(NC(=O)c2c(O)c3ccccc3[nH]c2=O)c1	/	/	2	/	-3.0
COC(=O)C(C(=O)OC)C(C(=O)OC)C(C(=O)OC)C(=O)OC	0	3%	-9	12	1.1	Arbovirus inh repeat=-1
Cc1cc(N2CCN(C)CC2)nc2ccc(NC(=S)N3CCC4(CC3)OCCO4)cc12	-2	-6%	-5	/	-4.0
CSc1cccc(NC(=S)N(CCC(C)C)C2CCN(C(C)C)CC2)c1	6	-6%	-6	/	4.6
CC(=O)Nc1cccc(-c2csc(NCc3ccccc3)n2)c1	-13	-3%	34	/	/
CCC(=NCCc1ccccc1)c1c(O)n(C2CCCCC2)c(=O)[nH]c1=O	-22	12%	1	14	2.1
O=C(CCC(=O)OCC(=O)c1ccc(-c2ccccc2)cc1)Nc1cccc(Cl)c1	5	-15%	-6	-27	-0.9
Cc1ccc(-c2cc(-c3nnc(SCC(=O)NCC(C)C)n3N)c3ccccc3n2)cc1	-6	18%	98	-8	3.2
O=C(Cc1ccccc1)Nc1nnc(SCC(=O)NC2CCCC2)s1	8	-8%	6	/	-3.2
O=C(O)c1cccc(NS(=O)(=O)c2cccc(C(=O)Nc3ccccc3[N+](=O)[O-])c2)c1	/	/	-3	/	4.0
CCOc1ccc(CCNC(=O)COC(=O)C2CCN(c3ccc(C(F)(F)F)cn3)CC2)cc1OCC	/	/	-4	/	1.1
COc1ccc(C(=O)NCCCSC)cc1OC1CCN(C(C)C)CC1	/	/	-8	/	-0.7
Cc1ccc(S(=O)(=O)N(C)C)cc1NC(=O)COC(=O)c1ccc(Cl)cc1	0	-2%	1	/	-1.4
Cc1cc(C)nc(Oc2ccc(Br)cc2)n1	/	2%	2	/	0.3
Cc1ccc(CN2CCNC2=O)cc1	12	-5%	11	-3	-2.0
O=C(/C=C\c1ccco1)Nc1cc([N+](=O)[O-])ccc1F	-13	-2%	-1	-21	-1.6
Cc1ccc(C(=O)N2CCCC(c3ccc(Cl)cc3)=N2)cc1	-19	31%	56	/	/
Cc1ccc(CN2CCN(C(=O)CCC(=O)Nc3nnc(C(C)C)s3)CC2)c(C)c1	/	/	9	/	0.7
Cc1ccccc1CCNC(=O)C1CCC(=O)N(Cc2ccc(Cl)cc2)C1 (stereo not given)	/	/	-2	/	1.7
CNc1ccccc1C(=O)OCC(=O)N(CCOC)c1c(N)n(CC(C)C)c(=O)[nH]c1=O	/	/	-5	/	-15
CCc1nc(SCC(=O)Nc2cc(C)ccc2OC)c2c(C)c(C)sc2n1	/	/	0	/	1.7
Cc1ccc2c(c1)N(C(=O)CCC(=O)NCCCN1CCOCC1)CCO2	/	/	-10	/	-0.3

Sorted by SMILES length (ascending): some entries from above
SMILES	Arbovirus inh	Mtb growth	Mtb betalactam	YopH PTP inh	RecA intein inh	others
Cc1ccc(CN2CCNC2=O)cc1	12	-5%	11	-3	-2.0
Cc1cc(C)nc(Oc2ccc(Br)cc2)n1	/	2%	2	/	0.3
O=C1CC(Cc2ccccc2)C(=O)N1c1ccccn1 (stereo not given)	/	0%	1	/	-0.4
CC(=O)Nc1cccc(-c2csc(NCc3ccccc3)n2)c1	-13	-3%	34	/	/
Cc1cccc(NC(=O)c2c(O)c3ccccc3[nH]c2=O)c1	/	/	2	/	-3.0
O=C(/C=C\c1ccco1)Nc1cc([N+](=O)[O-])ccc1F	-13	-2%	-1	-21	-1.6
CSc1cccc(NC(=S)N(CCC(C)C)C2CCN(C(C)C)CC2)c1	6	-6%	-6	/	4.6
CCc1nc(SCC(=O)Nc2cc(C)ccc2OC)c2c(C)c(C)sc2n1	/	/	0	/	1.7
CCC(=NCCc1ccccc1)c1c(O)n(C2CCCCC2)c(=O)[nH]c1=O	-22	12%	1	14	2.1
Cc1ccc(S(=O)(=O)N(C)C)cc1NC(=O)COC(=O)c1ccc(Cl)cc1	0	-2%	1	/	-1.4
O=C(CCC(=O)OCC(=O)c1ccc(-c2ccccc2)cc1)Nc1cccc(Cl)c1	5	-15%	-6	-27	-0.9
Cc1cc(N2CCN(C)CC2)nc2ccc(NC(=S)N3CCC4(CC3)OCCO4)cc12	-2	-6%	-5	/	-4.0
Cc1ccc(-c2cc(-c3nnc(SCC(=O)NCC(C)C)n3N)c3ccccc3n2)cc1	-6	18%	98	-8	3.2
CNc1ccccc1C(=O)OCC(=O)N(CCOC)c1c(N)n(CC(C)C)c(=O)[nH]c1=O	/	/	-5	/	-15
CCOc1ccc(CCNC(=O)COC(=O)C2CCN(c3ccc(C(F)(F)F)cn3)CC2)cc1OCC	/	/	-4	/	1.1
O=C(O)c1cccc(NS(=O)(=O)c2cccc(C(=O)Nc3ccccc3[N+](=O)[O-])c2)c1	/	/	-3	/	4.0

New compounds follow
SMILES	Arbovirus inh	Mtb growth	Mtb betalactam	YopH PTP inh	RecA intein inh	others
CC(C)(C)c1cc(NC(=O)c2cccnc2)no1	-3	0%	19	-48	-3.2
CC(=O)Nc1cccc(N2CCCC2=O)c1	-3	-5%	0	-7	-1.1
CCCCCCNC(=O)N1C/C=C\C(c2ccc(OC)cc2)N(Cc2ccc(F)cc2)C(=O)C1 (stereo not given)	/	0%	-4	/	8.6
O=C(CSCc1c(Cl)cccc1Cl)Nc1ccc2c(c1)OCO2	-7	15%	-6	-6	6.9
CCOc1ccc(S(=O)(=O)N2CCN(c3ccccc3)CC2)c2cccnc12	18	8%	5	17	3.0
CCOC(=O)c1ccc(NC(=O)Nc2cc(C)on2)cc1	3	4%	-6	12	3.3
CC1(C)CC2(CCO1)OC(=O)CC2C(=O)Nc1ccc(Cl)cc1[N+](=O)[O-] (stereo not given)	/	-1%	-13	/	-0.4
Cc1ccc(C(C)C)c(OCC(=O)N/N=C/c2cccn2C)c1	/	2%	-6	/	3.2
COc1cc(/C=C2\SC(=N)N(c3ccc4c(c3)OCO4)C2=O)cc(OC)c1O	-1	-6%	1	-45	9.4
CNC(=O)/C(C#N)=C\c1cc(C)n(-c2ccc(N3CCOCC3)cc2)c1C	-5	-1%	2	/	-1.8
NC(=S)NN=C1c2ccccc2-c2ccccc21	/	/	75	/	2.0
Cc1ccc2cc(CCl)c(Cl)nc2c1	/	-6%	?	/	2.4
CCOc1ccc(NC(=O)COC(=O)Cn2cnnn2)cc1OCC	-1	-5%	-8	-24	3.6
COC(=O)C(NC(=O)CCc1c(C)nc2c(c(C)nn2-c2ccccc2)c1C)C(C)C (stereo not given)	/	/	8	/	1.4
CN1C(C(=O)NCc2cccs2)=CC(c2ccc(F)cc2)=NS1(=O)=O	/	/	-5	/	-0.9
CC1(C)NC(=O)N(CC(O)COc2ccccc2C(=O)N2CCCCC2)C1=O (stereo not given)	4	2%	2	-53	1.0
CCOC(=O)c1cccc(NC(=O)C2CCN(S(=O)(=O)c3cnc[nH]3)CC2)c1	8	3%	-4	-9	1.1
O=C(Nc1ccc(NC(=O)c2ccccc2O)cc1)Nc1ccc(F)cc1F	/	1%	-5	/	-0.8
CC(=O)Oc1ccc(-c2csc(Nc3cccnc3)n2)cc1	3	4%	-2	-41	0.1
Cc1cc(C)c(C(=O)COC(=O)c2cc([N+](=O)[O-])ccc2N2CCOCC2)cc1C	/	/	4	/	-0.8
CC[C@@H](C(N)=O)N1CCCC1=O	12	-6%&-8%	3	/	-2.5
CCOC(=O)N1CCC(NC(=O)CC(NS(=O)(=O)c2ccc(C)cc2)c2ccco2)CC1 (stereo not given)	5	-4%	1	-19	-0.3
COc1ccc(-c2[nH]ncc2C=O)cc1	-8	1%	-9	-29	-2.3
O=C(O)c1cccc(N2C(=O)C3C4C=CC(C4=C(c4ccccc4)c4ccccc4)C3C2=O)c1 (stereo not given)	20	3%	2	/	14
O=c1c(Cc2ccc(Cl)cc2Cl)c(O)ccn1Cc1ccc(Cl)cc1	-15	-1%	-18	2	13
Later entries
SMILES	Arbovirus inh	Mtb growth	Mtb betalactam	YopH PTP inh	RecA intein inh	others
CC(=O)N1CCC(=NNS(=O)(=O)c2cccc([N+](=O)[O-])c2)CC1	-1	-11%	/	-12	/
COc1ccc(/C=C/C(=O)NC(=S)Nc2ccc(S(=O)(=O)Nc3ccc(OC)nn3)cc2)cc1	2	-2%	-1	-14	1.6
Clc1ccc2ccc3cccnc3c2n1	/	/	2	/	0.7
O=C(Nc1ccccc1)C1=C[C@@H](c2ccc(C(F)(F)F)cc2)C[C@@H](OCc2ccc(CO)cc2)O1	-14	33%	5	/	-0.3
COc1ccc([C@H]2/C=C\CN(C(=O)c3ccccc3)[C@@H](C)C(=O)N2Cc2ccc(F)cc2)cc1	/	2%	-6	/	7.9
CCn1cc(Br)c(C(=O)Nc2ccc(Cl)c(Cl)c2)n1	-1	-3%	5	-31	-0.5
CC(=O)c1cccc(Nc2nc(-c3ccccc3)cs2)c1	-4	16%	65	/	1.6
Cc1cc(NC(=O)c2cc3n(n2)C(C(F)(F)F)CC(c2ccc(Cl)c(Cl)c2)N3)no1 (stereo not given)	-1	4%	?	-21	1.3
O=C(NCc1ccccc1)/C(=N\O)c1ccccc1	2	0%	0	-72	/
COc1ccc(/C(O)=C2\C(=O)C(=O)N(CC3CCCO3)C2c2cc(OC)ccc2OC)cc1 (stereo not given)	-1	-8%	8	-39	/
C=CCN(c1ccccc1)S(=O)(=O)c1cccc(C(=O)OCC(=O)NCCOC)c1	/	3%	-9	/	-3.9
CCN(CC)CCN1C(=O)C(=O)/C(=C(/O)c2c(C)[nH]c(C(=O)OC)c2C)C1c1cccs1 (stereo not given)	-6	-8%	-4	-17	1.5
C=CCN(c1ccc(C(=O)NCCc2ccccc2)cc1)S(C)(=O)=O	10	-4%	7	-11	-1.4
O=C(c1cccnc1)c1ncc(C(F)(F)F)cc1Cl	/	/	0	/	-3.6
CC(c1cccs1)N(C)Cc1nc(CCc2ccccc2)no1 (stereo not given)	4	10%	5	/	4.4
C=CCc1cccc2cc(C(=O)Nc3ccc(CC(=O)O)cc3)c(=O)oc12	1	3%	0	/	0.0
Cc1cc(=O)oc(C)c1C(=O)Nc1cccc(F)c1	/	-6%	-6	/	-0.6
O=C(N/N=C/c1cccc(F)c1)c1cc(-c2ccco2)nc2ccccc12	-12	8%	6	4	0.0
COCC(=O)Nc1cc(C)c2c(=O)oc3ccccc3c2n1	10	/	-3	/	0.0	Arbovirus inh repeat=-4
O=C1NC(c2cccc(Cl)c2)Oc2ccccc21 (stereo not given)	/	/	-4	/	-0.4
CCCCCCn1c(O)c(C=Nc2c(C)n(C)n(-c3ccccc3)c2=O)c(=O)[nH]c1=O	4	-2%	-14	-51	-56
CC(C)(C)N1C(=O)c2ccc(C(=O)Nc3nccs3)cc2C1=O	-1	10%	4	-2	-1.8	Arbovirus inh repeat=-2
CCn1c(C)cc2c(c1=O)C(c1ccncc1)C(C#N)=C(N)O2 (stereo not given)	-1	1%	-7	-28	-0.9
O=C(c1ccc(S(=O)(=O)N2CCCC2)cc1)N(c1ccccc1)C1C=CS(=O)(=O)C1 (stereo not given)	/	/	5	/	2.3
Cc1cccc(NC(=O)COC(=O)c2ccccc2-c2nc3ccccc3s2)c1C	11	3%	10	-29	3.7
O=C(Cc1ccccc1)N/N=C/c1ccccc1F	-7	7%	/	-25	/
O=C(COc1ccc2c(-c3ccccc3)cc(=O)oc2c1)N[C@@H](Cc1c[nH]c2ccc(O)cc12)C(=O)O	/	/	-9	/	10.0
CCOc1ccccc1N1CCN(C(=O)c2c(-c3c(F)cccc3Cl)noc2C)CC1	/	/	1	/	3.0
CC(C)CNC(=S)NC1CC2CCCC(C1)N2Cc1cccs1 (stereo not given)	5	1%	4	-21	0.9

An excerpt from the list above:
SMILES	Arbovirus inh	Mtb growth	Mtb betalactam	YopH PTP inh	RecA intein inh	others
O=C(Nc1ccccc1)C1=C[C@@H](c2ccc(C(F)(F)F)cc2)C[C@@H](OCc2ccc(CO)cc2)O1	-14	33%	5	/	-0.3
COc1ccc([C@H]2/C=C\CN(C(=O)c3ccccc3)[C@@H](C)C(=O)N2Cc2ccc(F)cc2)cc1	/	2%	-6	/	7.9

This is a subset, so the mix of outcomes need not match the whole.
